# High-throughput results: PubChem, National Center for Advancing Translational Sciences (NCATS)
# 2A StopGo: High Throughput Screening for Foot and Mouth Disease Virus Antivirals; human cells with a luciferase reporter of 2A StopGo recoding; control for the full effect not named in the record; Potency, µM (titrated, usually from 57.9 µM), without a hit: top-dose signal change, negative = less light; 410,000 compounds, 1.2% hits; AID 1159524, 2015; active = well fitted falling curve with a large enough effect; inconclusive = small, poorly fitted or top-dose-only effect; inactive = no such curve, though single readings can be large or run the other way; tested in HEK293T cells; also: % is scaled to controls: 0 for no effect and ±100 for the full control effect; nearly all actives have a fitted effect of over 45% in size; luciferase light after 4 h
# NS1 inh: qHTS Assay for Inhibitors of Influenza NS1 Protein Function; S. cerevisiae slowed by influenza A NS1, growth recovery by OD600; Potency, µM (doses to about 46.1 µM), for inactives: top-dose activity, positive = more growth; 270,000 compounds, 0.4% hits; AID 2326, 2010; also: actives are rising curves; nearly all actives have a fitted effect of over 50% in size
#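 Growth recovery, yeast-based: influenza A NS1 expressed in S. cerevisiae causes slow growth, and suppressors are detected by OD600. The parent strain without NS1 is used as positive control.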
# Lassa entry inh: qHTS for Inhibitors of binding or entry into cells for Lassa Virus. Potency, µM (top dose mostly 37.9 µM), for inactives: at the highest dose activity change, negative = inhibition, most hits filed as inhibitors. 300,000 compounds, 1.2% hits. Lassa virus pseudotype entry inhibition, cell reporter; control for the full effect not named in the record; active means well fitted inhibition curve with a large enough effect; inconclusive means small, poorly fitted or top-dose-only effect, or effect the other way; inactive means flat fitted curve, though single readings scatter; tested in HEK293 cells; also: % is scaled to controls: 0 for no effect and ±100 for the full control effect; nearly all actives have a fitted effect of over 50% in size; luciferase read-out
# Cruzain inh noDet: qHTS Assay for Promiscuous and Specific Inhibitors of Cruzain (without detergent). Cruzipain (Trypanosoma cruzi), P25779. purified cruzain, Z-FR-AMC fluorescence, no detergent. Potency, µM, for inactives: max response, negative = inhibition, actives largely listed as inhibitors. 200,000 compounds, 2.3% hits. AID 1476, 2009; active = well fitted curve in the direction sought with a large enough effect; inconclusive = small, poorly fitted or top-dose-only effect, or another doubt; inactive = no such curve, though single readings can be large; an effect the other way counts as inactive or inconclusive;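 also: plate controls were enzyme without inhibitor for no effect and buffer without enzyme for full effect; nearly all actives have a fitted effect of over 40% in size; top concentration of the series not given in the record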
# Target sequence (P25779 123-467 limits assumed): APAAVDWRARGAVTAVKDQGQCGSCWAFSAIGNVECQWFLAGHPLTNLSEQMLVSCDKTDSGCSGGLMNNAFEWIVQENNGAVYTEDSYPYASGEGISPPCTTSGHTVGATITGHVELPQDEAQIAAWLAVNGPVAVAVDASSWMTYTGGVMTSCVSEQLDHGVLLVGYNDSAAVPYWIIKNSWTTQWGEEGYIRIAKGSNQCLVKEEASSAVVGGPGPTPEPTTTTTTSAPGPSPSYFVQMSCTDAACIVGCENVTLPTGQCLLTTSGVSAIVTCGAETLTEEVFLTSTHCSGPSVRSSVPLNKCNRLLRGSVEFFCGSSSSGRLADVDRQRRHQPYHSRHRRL
#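 Detergent-free condition (0.00005% Triton X-100) in acetate buffer pH 5.5 with DTT. 1.5 nM enzyme and compound were pre-mixed 15 min, then 2 uM Z-FR-AMC substrate added; reaction progress from fluorescence change between first and third reads (60 s).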
# RE007 growth inh: qHTS Assay for Inhibitors of the HIV-1 protein Vpr | 360,000 compounds, 0.21% hits | Potency, µM (titrated, usually from 92.2 µM), inactives show top-dose activity change, negative = less growth | S. pombe RE007 Vpr strain, BacTiter-Glo ATP luminescence, 24 h; control for the full effect not named in the record; active = well fitted falling curve with a large enough effect; inconclusive = small, poorly fitted or top-dose-only effect; inactive = no such curve, though single readings can be large or run the other way;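 also: % is scaled to controls: 0 for no effect and ±100 for the full control effect; nearly all actives have a fitted effect of over 50% in size; the assay follows cell death caused by Vpr and the record does not say whether a fall means rescue or toxicity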
#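 Fission yeast strain RE007, carrying one chromosomally integrated HIV-1 vpr copy, was seeded at OD 0.01 in PMG+AL medium with 23 nL pinned compound. After 24 h at 30 °C and 99% humidity, viability was read by BacTiter-Glo luminescence.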
# Cruzain Triton: qHTS Assay for Promiscuous and Specific Inhibitors of Cruzain (with detergent). purified cruzain, Z-FR-AMC fluorescence, 0.01% Triton. 200,000 compounds, 0.43% hits. Cruzipain (Trypanosoma cruzi), P25779. Potency, µM, inactives show max response, negative = inhibition, most hits filed as inhibitors; active = well fitted curve in the direction sought with a large enough effect; inconclusive = small, poorly fitted or top-dose-only effect, or another doubt; inactive = no such curve, though single readings can be large; an effect the other way counts as inactive or inconclusive;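 also: plate controls were neutral wells for no effect and buffer without enzyme for full effect; nearly all actives have a fitted effect of over 40% in size; top concentration of the series not given in the record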
#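 15 min RT preincubation of 1.5 nM cruzain with compound, then 2 uM Z-FR-AMC added; kinetic AMC fluorescence, 60 s delta. Triton X-100 0.01%, pH 5.5.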
# SARS PLP yeast: qHTS of Yeast-based Assay for SARS-CoV PLP; S. cerevisiae expressing SARS-CoV PLpro, growth rescue; control for the full effect not named in the record; Potency, µM (doses to about 32.9 µM), for the others: at the highest dose activity, positive = growth rescue; 330,000 compounds, 0.19% hits; AID 485353, 2010; also: 0% is about no effect; nearly all actives have a fitted effect of over 55% in size; growth read by luminescence after 48 h
# MARV entry inh: qHTS for inhibitors of binding or entry into cells for Marburg Virus | Marburg virus pseudotyped entry inhibition, cell reporter; control for the full effect not named in the record; about a third of the inactives were read at about 46 µM | Potency, µM (series often up to 37.8 µM), for the others: at the highest dose activity change, negative = inhibition, usual class: inhibitors | 300,000 compounds, 1.8% hits | AID 540276, 2011; active = well fitted inhibition curve with a large enough effect; inconclusive = small, poorly fitted or top-dose-only effect, or effect the other way; inactive = flat fitted curve, though single readings scatter; tested in HEK293 cells; about a fifth of its hits are not listed in these tables; also: % is scaled to controls: 0 for no effect and ±100 for the full control effect; luciferase read-out
# * marks the source's active call; other numbers are inactive results; ? = inconclusive; . = no result given; & = joins results of further samples; ! = repeats disagree; [ ] = another dose, or the depositor's remark. Unless noted, calls follow the shape of the dose curve; as a rule, active means well fitted rising curve with a large enough effect; inconclusive means small, poorly fitted or top-dose-only effect; inactive means no such curve, though single readings can be large or run the other way. Potency is read from the fitted curve at half-maximal effect.
canonical_smiles	NS1 inh	SARS PLP yeast	RE007 growth inh	Cruzain Triton	Cruzain inh noDet	2A StopGo	MARV entry inh	Lassa entry inh
CC1CCN(C(=O)c2ccc([N+](=O)[O-])o2)CC1	-30.1%	-10.4%	-16.9%	.	.	-7.9%	1.4%[46.1 µM]	6.8%
CCCOc1ccc(NCC(=O)Nc2ccc(C)cc2C)cc1	-31.6%	4.1%	2.8%	-4.8%	-14.8%	?	6.9%	2.8%
CCCN=Cc1sc2ccc(OCC)cc2c1O	-86.2%	-4.8%	-5.9%	-4.5%	-9.3%	.	?	-12.1%
CCOc1ccccc1N(CC(=O)Nc1cc(OC)ccc1OC)S(C)(=O)=O	-2.1%	-1.7%	-5.4%	-3.5%	3.0%	-9.2%	-24.3%	-27.2%
Cc1ccccc1C(=O)c1cccn1CC(=O)N1CCCCC1	3.0%	3.7%	7.8%	.	.	19.2%	.	.
CN(CC(=O)N1CCN(c2ccccn2)CC1)S(=O)(=O)c1ccc(Cl)cc1	0.0%	0.3%	-8.9%	.	.	5.9%	6.2%[46.1 µM]	-1.1%[46.1 µM]
CCC(C)[C@@H](C(=O)N1CCNCC1)n1cc(CCCN=C(N)N)nn1 (stereo not given in full)	0.4%	1.6%	-2.3%	.	.	-3.2%	.	.
Cc1ccc(N/N=C/c2ccc3c(c2)OCCO3)cc1Cl	-7.5%	-37.2%	20.2%	2.8%	20µM*	24.5%	?	-3.6%
O=C(CCn1c(=O)[nH]c2ccsc2c1=O)NCCc1ccc(Cl)cc1	1.0%	5.5%	2.5%	-0.4%	0.3%	-13.0%	-0.3%	4.9%
O=C(COC(=O)c1ncc(Cl)c(Cl)c1Cl)NC(=O)NCc1ccccc1	0.1%	1.2%	-14.0%	.	.	-3.2%	-1.5%[46.1 µM]	-4.0%[46.1 µM]
O=C(CCSc1nnc(-c2ccncc2)o1)Nc1cccc2ccccc12	-6.5%	-4.4%	-11.1%	-3.8%	-12.6%	-0.9%	4.1%	-5.4%
CC(=O)N1CCc2c(sc3c2c(=O)n(Cc2ccccc2)c(=O)n3Cc2ccccc2Cl)C1	.	.	.	-2.2%	?	?	-22.9%[46.1 µM]	.
CC(C)CC(C(=O)NC1CCCCC1)N(Cc1ccccc1)C(=O)c1snc(C(N)=O)c1N (stereo not given)	0.7%	-3.2%	19.1%	.	.	-9.5%	?	-28.8%[46.1 µM]
Cc1c(C(=O)OCC2CCCO2)[nH]c2c1C(=O)CC(c1ccco1)C2 (stereo not given)	-9.9%	?	2.5%	-9.3%	0.0%	0.0%	?	?
COc1ccc(-n2c(O)c(/C=C3\C=Nc4ccccc43)c(=O)[nH]c2=O)cc1	-4.8%	4.8%	3.8%	.	.	-10.4%	.	.
CC(=O)c1c(C(C)=O)c(C)n(-c2ccc(C)c(NC(=O)c3ccccc3Cl)c2)c1C	-13.4%	-2.5%	-7.0%	4.0%	5.6%	?	-16.7%	19.1%[14.3 µM]
CCC(=O)Nc1ccc2nc(SCc3ccc(C)cc3)sc2c1	.	.	.	-4.6%	17.6%	5.0%	-16.7%[46.1 µM]	-26.3%[46.1 µM]
COC(=O)c1ccccc1S(=O)(=O)N1CCC(C(=O)OCc2ccc([N+](=O)[O-])cc2)CC1	.	0.7%	-12.9%	.	.	-3.8%	?	?
O=C(/C=C/c1cccc([N+](=O)[O-])c1)NCCSCc1ccc(Cl)cc1Cl	8.1%	-9.6%	1.8%	-2.5%	12.2%	-26.1%	?	-15.0%
C=CCOc1ccccc1C(=O)/C=C1/C(=O)Nc2ccccc21	-108.6%	-10.6%	-2.4%	.	.	39.8µM*	.	.
OCCN1CCN(c2ncnc3sc(-c4ccccc4)cc23)CC1	.	0.7%	15.1%	.	.	?	?	?
CCn1c(CNC(=O)Cc2ccc(OC)cc2)nnc1SCC(=O)NC1CCCCC1	-10.9%	-3.4%	-5.7%	2.5%	0.3%	-14.4%	?	3.4%
COc1ccc(CNC(=O)CCCOc2cc(=O)n(C)c3ccccc23)cc1	-1.8%	-4.9%	0.1%	5.7%	6.3%	21.9%	0.9%	7.0%
COc1ccc2c(c1)c(C(O)CN1CCC3(CC1)OCCO3)c(C)n2C (stereo not given)	?	-8.3%	.	1.0%	-0.4%	.	0.2%	.
CN(C)c1ccc(C(CNS(=O)(=O)c2ccc(F)c(F)c2)c2c[nH]c3ccccc23)cc1 (stereo not given)	10.7%	-32.5%	11.2%	-6.8%	?	0.2%	?	-23.6%
N#Cc1c(N)n(-c2cccc(C(=O)O)c2)c2nc3ccccc3nc12	-1.9%	-0.7%	3.8%	.	.	-10.8%	.	.
O=C(Cn1ncc2c3ccccc3n(Cc3ccccc3)c2c1=O)NCc1ccco1	3.6%	1.0%	12.3%	.	.	-9.8%	.	.
CC(=O)Nc1ccc(NC(=O)C(C)OC(=O)CCCN=C2NS(=O)(=O)c3ccccc32)cc1 (stereo not given)	.	0.9%	2.0%	.	.	0.8%	-18.6%	1.0%
CCc1nnc(NC(=O)CCC(=O)N2CCN(Cc3cc(Cl)ccc3OC)CC2)s1	-10.1%	0.7%	-0.2%	0.6%	2.4%	-9.2%	10.0%&10.0%	-0.8%
c1ccc2c(c1)CSc1sccc1C2=C1CCNCC1	-1.6%	-0.3%	3.5%	-3.9%	-17.5%	-25.9%	6.51µM*	?
Cc1cccc(NC(=S)Nc2ccccn2)c1C	6.6%	?	-22.6%	-0.4%	-21.4%	4.5%	-0.7%	0.6%
Cc1occc1C(=O)N1CCN(C(=O)C2CCCO2)CC1 (stereo not given)	5.1%	5.1%	0.3%	-0.2%	-9.0%	18.6%	9.2%	4.2%
Cc1cccc(NC(=O)Cn2c(=O)n(C)c3ccccc32)c1	-4.7%	6.9%	4.2%	-0.2%	-2.0%	-10.5%	-4.9%	3.5%
Cc1cccc(C(=O)Nc2cc3nn(-c4ccc(C(C)C)cc4)nc3cc2C)c1	.	.	.	-0.1%	0.2%	4.1%	3.5%[46.1 µM]	18.7%[46.1 µM]
O=C(CN(Cc1cccs1)C(=O)CCC(=O)Nc1nccs1)NCc1ccccc1	6.8%	6.2%	5.0%	1.7%	0.3%	.	-3.6%	7.6%
Cn1cc(C(=O)NCCc2ccc(Cl)cc2)c(=O)c2cc(S(=O)(=O)N3CCCCC3)ccc21	.	.	.	-0.5%	-2.2%	8.5%	-0.1%[46.1 µM]	3.3%[46.1 µM]
CC(C)NC(=O)CSc1nncn1-c1ccccc1	3.3%	0.8%	14.0%	2.3%	10.0%	-7.9%	4.0%	-0.9%
O=S(=O)(NCC1CC1)c1cc(Cl)cc(Cl)c1	-6.7%	-1.5%	3.4%	.	.	37.4%[activator]	-18.1%[46.1 µM]	10.4%[46.1 µM]
Cc1cc(OCC(=O)NCc2cccnc2)c2c(C)cc(=O)oc2c1	2.1%	-2.0%	-5.4%	.	.	-15.2%	.	.
COc1ccc(/C=N/n2c(SC)nnc(C(C)(C)C)c2=O)cc1OC	-2.8%	6.4%	-16.0%	-5.6%	?	?	31.3%	-16.3%
CC(=O)N1CCC(N(CCCOC(C)C)C(=O)Nc2ccc(C)c(C)c2)CC1	-1.1%	4.9%	-5.7%	1.2%&4.0%	19.0%&22.9%	-13.8%&-2.2%	21.8%&21.8%	-9.4%[46.1 µM]
CN(C)CCCN1C(=O)c2oc3ccc(F)cc3c(=O)c2C1c1cccnc1 (stereo not given)	?	-11.9%	12.5%	0.6%	-12.1%	-14.5%	.	.
CC1=CC(C)(C)Nc2ccccc21	12.5%	-0.1%&-12.5%	2.6%&-4.2%	0.1%&7.7%&2.9%	15.8µM*!	-20.2%&-2.4%	-27.1%	-3.6%
CCOC(=O)c1cc2c(=O)n3ccccc3nc2n(C(C)C)c1=NC(=O)c1c(-c2c(F)cccc2Cl)noc1C	?	11.7%	-2.5%	-1.2%&-0.1%	?	-16.0%&-22.4%	?	?
Cc1cc2nn(-c3ccc(F)cc3)nc2cc1NC(=O)c1ccc(C(C)(C)C)cc1	.	.	.	1.1%	-11.7%	3.1%	9.6%[46.1 µM]	6.8%[46.1 µM]
COc1cccc(NC(=O)CSc2nc3c([nH]c4ccccc43)c(=O)n2-c2cccc(Cl)c2)c1	.	.	.	-0.2%	-22.1%	-21.0%	.	?
CCOc1ccc(C(c2c(O)cc(C)n(Cc3ccco3)c2=O)N2CCCCC2)cc1 (stereo not given)	.	.	.	1.8%	?	-6.4%	.	.
COc1ccc(C(=O)NC(=S)NNC(=O)COc2ccccc2)cc1	-50.0%	-2.4%	31.3%	.	.	28.2µM*	?	17.6%
COc1cccc(C2C3=C(N=c4s/c(=C\c5ccc(OCC(=O)O)cc5)c(=O)n42)c2ccccc2CC3)c1 (stereo not given)	?	-0.3%	-2.3%	.	.	21.2%	.	.
Cc1ccccc1NC1=C(Cl)C(=O)OC1OC(=O)c1ccccc1C (stereo not given)	.	-13.2%	20.8%	.	.	?	?	-25.7%

# Additional entries:
canonical_smiles	NS1 inh	SARS PLP yeast	RE007 growth inh	Cruzain Triton	Cruzain inh noDet	2A StopGo	MARV entry inh	Lassa entry inh
O=C(COC(=O)c1ccc(Cl)cc1)NC(=O)NC1CCCC1	.	-1.2%	-1.8%	.	.	-8.3%	22.9%[46.1 µM]	1.5%
O=C(CCNS(=O)(=O)c1ccccc1)N1CCCCCC1	-19.6%	-1.6%	4.8%	.	.	27.7%	.	.
CC(C)N(Cc1ccccc1)C(=O)c1cccs1	2.4%	1.4%	16.7%	.	.	-14.6%	.	.
O=C(CSc1cccc2cccc(Cl)c12)OCC(=O)N1CCN(C(=O)c2ccco2)CC1	-77.1%	-2.7%	-5.8%	-25.9%	?	-4.5%	5.1%	-4.9%
